Assay outcomes (PubChem)
Methyltransferases: Primary Screen for Target Class Profiling of Small Molecule Inhibitors of Methyltransferases; purified enzyme, MTase-Glo SAH luminescence; stronger effect = lower value; calls only at 40 µM; hit rate 3.9% among 25,000; active = -50% or lower on at least one of six enzymes; inconclusive = the cases between; inactive = as a rule above -30% on all six;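 further: enzymes were COMT GAMT GNMT HNMT NNMT and PNMT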
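Each enzyme was reacted with SAM and its substrate, with compounds tested once at 40 uM; SAH formed was read by MTase-Glo luminescence.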
Calls only; i = inactive; ? = inconclusive; + = active, no number. On the % scale 0 is the no-effect control and ±100 the full control effect. Not all compounds are listed; count on the stated rates, not on these rows.

Compound,Methyltransferases
CCCn1c(=O)c2ccc(Cl)cc2n2c(=O)n(Cc3ccccc3Cl)nc12,i
CN1C(=O)c2cc(C(=O)NCCc3ccccc3)nn2CC1(C)C(=O)NCc1ccccc1 (configuration not stated),i
CC(C)C1c2cccn2-c2sc3c(c2CN1C(=O)NCc1ccccc1)CCCC3 (configuration not stated),i
Cc1ccc(Cn2c(=O)c3ccccc3n3c(CCC(=O)N4CCC(N5CCCCC5)CC4)nnc23)cc1,+
CCOc1ccccc1CN1C(=O)c2ccc(-c3ccco3)n2CC1(C)C(=O)NC1CCC(C)CC1 (configuration not stated),i
CCOc1ccc(CNS(=O)(=O)c2ccc3[nH]c(=O)[nH]c3c2)cc1OC,i
Cc1ccc([S+](=O)([O-])N2CCCC2C(=O)N2CCC3(CC2)CC(=O)Nc2ccccc2O3)cc1 (configuration not stated),i
Fc1ccc(-c2nc(-c3c(F)cccc3F)[nH]c2-c2ccncc2)cc1,?
O=C(O)c1cc(N(Cc2ccc(C3CCCCC3)cc2)C(=O)c2ccc(Oc3ccccc3)cc2)ccc1O,+
COc1ccc(C(=O)N2CC(N(C3CCOCC3)S(C)(=O)=O)C2)cn1,i
CN1C[C@@H](NC(=O)Nc2ccccc2)C[C@H]1c1nc(Cc2ccccc2)no1,i
COc1ccc(CCNC(=O)CCc2nnc3n(CCC(C)C)c(=O)c4ccccc4n23)cc1OC,i
Cc1nn(-c2ccccc2)c2c1C(C1CC1)N(C1CCN(Cc3cccc(OC(F)(F)F)c3)CC1)C2=O (configuration not stated),i
CN1C(=O)c2cc(C(=O)NCc3cccc(Cl)c3)nn2CC1(C)C(=O)NCc1ccc(F)cc1 (configuration not stated),i
CCOc1ccc(CN2C(=O)c3ccc(-c4ccco4)n3CC2(C)C(=O)NC2CCCCCC2)cc1 (configuration not stated),i
Cc1cc2c(cc3n2CC(C)(C(=O)NC2CCCCC2)N(Cc2ccccc2)C3=O)o1 (configuration not stated),i
CC1(C(=O)NC2CCCCC2)Cn2nc(-c3ccco3)cc2C(=O)N1Cc1ccccc1F (configuration not stated),i
CCOC(=O)C1(Cc2ccccc2)CCNCC1,i
CCCn1c(=O)c2ccccc2n2c(=O)n(CC(=O)NCc3ccc(C)cc3)nc12,i
Nc1nc2ccc(Cl)cc2n2c(-c3ccccc3)nnc12,i
O=C1C[C@@]2(C(=O)N1)C(=O)N(Cc1ccc(Br)cc1F)C(=O)c1cccn12,i
COc1ccccc1-c1nnc2n(Cc3ccc(C)cc3)c(=O)c3ccccc3n12,i
CCC1(C(=O)O)CCCN(Cc2ccccc2)C1 (configuration not stated),i
O[C@H]1[C@H](NCc2ccco2)[C@H]2CO[C@H](O2)[C@@H]1N1CCC(Cc2ccccc2)CC1,i
OC[C@H]1O[C@@H](OC(CCCCc2ccc(O)cc2)CCc2ccc(O)cc2)[C@H](O[C@@H]2OC[C@](O)(CO)[C@H]2O)[C@@H](O)[C@@H]1O (some centres not stated),i

Among those listed so far, these have sulfur.
Compound,Methyltransferases
CC(C)C1c2cccn2-c2sc3c(c2CN1C(=O)NCc1ccccc1)CCCC3 (configuration not stated),i
CCOc1ccc(CNS(=O)(=O)c2ccc3[nH]c(=O)[nH]c3c2)cc1OC,i
Cc1ccc([S+](=O)([O-])N2CCCC2C(=O)N2CCC3(CC2)CC(=O)Nc2ccccc2O3)cc1 (configuration not stated),i
COc1ccc(C(=O)N2CC(N(C3CCOCC3)S(C)(=O)=O)C2)cn1,i

Later entries:
Compound,Methyltransferases
C=C1C(=O)OC2CC3(C)C(O)C(=O)C=C(C)C3CC12 (configuration not stated),?
Cc1nc([C@@H]2CN(C(=O)c3nn(C)c4ccccc34)C[C@H]2C(N)=O)n[nH]1,i
O=S(=O)(c1ccccc1)N1CCC(F)(c2nc(-c3ccncc3)no2)CC1,i
Cc1ccc(N2C(=O)c3cc(C(C)(C)C)nn3CC2(C)C(=O)NC2CCCCC2)c(C)c1 (configuration not stated),i
COc1ccc(OC)c(NC(=O)Cn2c(=O)c3ccc(Cl)cc3n3nncc23)c1,i
NC(=O)[C@H](Cc1cccs1)NC(=O)[C@@H]1C[C@@H](NC(=O)c2cnccn2)CCN1C(=O)COCC(=O)O,i
Cc1cc2c(cc1S(=O)(=O)Nc1ccccc1)n(C)c(=O)n2C,i
COc1cc(-c2ccc(O)cc2)c(OC)c(O)c1C1=CC(=O)OC1CC(=O)O (configuration not stated),i
Cc1ccc(NS(=O)(=O)c2cc3c(cc2Cl)n(C)c(=O)n3C)cc1,i
Cn1cc(C(=O)NCCc2cccs2)c(S(=O)(=O)N2CCCCC2)n1,i
O=C1c2cc3sccc3n2CC(C(=O)NC2CCCCCC2)(c2ccccc2)N1Cc1ccc2c(c1)OCO2 (configuration not stated),i
O=c1[nH]c2ccc(S(=O)(=O)NCCC3=CCCCC3)cc2[nH]1,i
CC1(C)CCC[C@]2(C)[C@H]3CC(=O)O[C@]3(C)CC[C@@H]12,?
CC1CCCCC1NC(=O)C1(C)Cn2c(cc3occc32)C(=O)N1Cc1ccc(F)cc1 (configuration not stated),i
Cc1cc(C(=O)N2CCC3(CC2)CC(N(Cc2ccc(F)cc2)C2CC2)CCO3)n(C)n1 (configuration not stated),i
COc1cccc(CN[C@H]2[C@H](O)[C@H](O)C[C@@H]2c2ccc(N3CCOCC3)nc2)c1,i
C=CC(C)(O)CO[C@@H]1O[C@H](CO)[C@@H](O)[C@H](O)[C@H]1O (some centres not stated),?
CCn1ncnc1C(C)NC1CCC2(CCNCC2)CC1 (configuration not stated),i
O=c1c2c(CO)c(-c3ccccc3)nn2ccn1CCOc1ccccc1,i
CCC(C)NC(=O)c1ccc2c(=O)n(C)c3nnc(SCc4ccc(N5CCCC5=O)cc4)n3c2c1 (configuration not stated),i
O=C(CCc1nc2ccccc2s1)N[C@@H]1CCOC[C@H]1OCCO,i
CCCn1c(=O)c2ccc(C(=O)NCC(C)C)cc2n2c(=O)n(CC(=O)N(C)c3ccccc3)nc12,i
CN1C(=O)c2cc(C(=O)NCc3ccc4c(c3)OCO4)nn2CC1(C)C(=O)NCc1ccccc1 (configuration not stated),i
Cc1cc2c(cc3n2CC(C)(C(=O)NC2CCCCCC2)N(Cc2cccc(F)c2)C3=O)o1 (configuration not stated),i
Cc1ccc(C)c(Cn2nc3n(CC(C)C)c(=O)c4ccccc4n3c2=O)c1,i
CCOC(=O)c1cc2n(n1)CC(C)(C(=O)NC1CCCCC1)N(Cc1ccc(C)cc1)C2=O (configuration not stated),i
NCC1CCN(c2nccc(-c3ccc4ccccc4c3)n2)CC1,i
CCCn1c(=O)c2ccccc2n2c(SCc3cccc(Cl)c3)nnc12,i
COc1ccc(CNC(=O)C2(C)Cn3cnc(C(=O)N4CCc5ccccc54)c3C(=O)N2C2CC2)cc1 (configuration not stated),i
CC(=O)c1ccc(O[C@@H]2O[C@H](CO)[C@@H](O)[C@H](O)[C@H]2O)cc1,i
CC1CCC(NC(=O)c2cc3n(n2)CC(C)(C(=O)NC2CCCCCC2)N(C)C3=O)CC1 (configuration not stated),i
Oc1ccc([C@H]2COc3cc(O)ccc3C2)cc1,i
CCOC(=O)c1cc2n(n1)CC(C)(C(=O)NCc1ccccc1)N(Cc1cccc(OC)c1OC)C2=O (configuration not stated),i
N#Cc1cccc(-c2nc(-c3cccnc3)no2)c1,i
C/C=C/[C@@H]1C=C[C@@H]2C[C@H](C)CC[C@H]2[C@]1(C)/C(O)=C1/C(=O)[C@@H](CO)N(C)C1=O,i
CC(=O)Nc1nnc(S(N)(=O)=O)s1,i
CC(C)N1CCN(C(=O)C2N(C(C)C)C(=O)C23CCCC3)CC1 (configuration not stated),i
CCCN(Cc1nccn1C)C(=O)c1cn(Cc2ccc(F)cc2)nn1,i
CC1(C)C(=O)CCC2(C)C1C(O)C=C1COC(=O)C12O (configuration not stated),i
CC(C)OCCCn1c(=O)c2ccccc2n2c(=O)n(Cc3cccc(Cl)c3)nc12,i
CC1(C(=O)NC2CCCCCC2)Cc2ccccc2C(=O)N1C1CCCC1 (configuration not stated),i
CCCN1C(=O)c2c(-n3cccc3)c3cc(C)ccc3n2CC1(C)C(=O)NCCC(C)C (configuration not stated),i
COC1C(O)C(OC2CCC3(C)C(CCC45CCC6C7(COC(=O)C7)OC4(O)C6(C)CCC35)C2)OC(C)C1OC1OC(CO)C(OC2OC(CO)C(O)C(O)C2O)C(O)C1O (configuration not stated),i
CCCCCCCCCC(=O)NC(CN1CCOCC1)[C@H](O)c1ccccc1 (some centres not stated),i
COc1ccc(N2C(=O)c3cc(-c4cccs4)nn3CC2(C)C(=O)NC2CCCCC2)cc1Cl (configuration not stated),i
CC(C)(C)c1cc2n(n1)CC(C)(C(=O)NC1CCCCCC1)N(Cc1ccccc1)C2=O (configuration not stated),i
CCCCc1ccc(-n2cc(CN3CCN(C(C)=O)CC(O)C3)cn2)cc1 (configuration not stated),i
O=C(Nc1cccc(Cl)c1)[C@@H]1C[C@H](c2ccc(F)cc2)N([S+](=O)([O-])C2CC2)C1,i
CCCSCCCN1C(=O)c2nc3ccccc3n2CC1(C)C(=O)NC1CCCC1 (configuration not stated),i
CCc1ccccc1NC(=O)CSc1nnc2n(Cc3ccc(F)cc3)c(=O)c3ccccc3n12,i

4 entries already listed, arranged by molar mass, rising.
Compound,Methyltransferases
CCCCc1ccc(-n2cc(CN3CCN(C(C)=O)CC(O)C3)cn2)cc1 (configuration not stated),i
CCCCCCCCCC(=O)NC(CN1CCOCC1)[C@H](O)c1ccccc1 (some centres not stated),i
O=C(Nc1cccc(Cl)c1)[C@@H]1C[C@H](c2ccc(F)cc2)N([S+](=O)([O-])C2CC2)C1,i
COc1ccc(N2C(=O)c3cc(-c4cccs4)nn3CC2(C)C(=O)NC2CCCCC2)cc1Cl (configuration not stated),i

Next part:
Compound,Methyltransferases
CC(C)n1c(=O)c2ccc(C(=O)NC3CCCCC3)cc2n2c(=O)n(Cc3ccc(F)cc3Cl)nc12,i
COc1ccc(C2(C(=O)N3CCCC(Cn4c(C)nc5cccnc54)C3)CCCCC2)cc1 (configuration not stated),i
COc1ccccc1CNC(=O)c1ccc2c(=O)n(-c3cccc(F)c3)c3nnc(C)n3c2c1,i
Cn1c(=O)c2ccc(C(=O)NC3CCCC3)cc2n2c(SCC(=O)NC3CCCC3)nnc12,i
Cc1noc(C)c1C(=O)N1CCOc2ccc(CCC(=O)NCC3CC3)cc2C1,i
Cc1cc(CN(C)C(=O)c2cc(COc3ccc(F)cc3F)on2)n[nH]1,i
COc1ccc(-c2cc3n(n2)CC(C)(C(=O)NCc2ccccc2)N(c2ccccc2C)C3=O)cc1 (configuration not stated),i
CCN1C(=O)c2c(C(=O)NCCc3cccc(C)c3)ncn2CC1(C)C(=O)NC1CCCC1 (configuration not stated),i
COc1ccc(Cl)cc1Nc1ncncc1-c1nc(-c2ccccc2)no1,i
CCOc1ccc(N2C(=O)c3cc(-c4ccc(OC)cc4)nn3CC2(C)C(=O)NCc2ccccc2OC)cc1 (configuration not stated),i
Cc1ccnn1CCC(=O)N1CCOC(Cc2ccc(F)cc2)C1 (configuration not stated),i
CC(C)Oc1ccc(CNC(=O)CNC(=O)C2(C)Cn3c(cc4ccccc43)C(=O)N2C)cc1 (configuration not stated),i
CC1(C)CC[C@]23CO[C@@]4(CCC5[C@@]6(C)CC[C@H](O[C@@H]7OC[C@H](O[C@@H]8O[C@H](CO)[C@@H](O)[C@H](O)[C@H]8O[C@@H]8OC[C@@H](O)[C@H](O)[C@H]8O)[C@H](O)[C@H]7O[C@@H]7O[C@H](CO)[C@@H](O)[C@H](O)[C@H]7O)[C@@](C)(CO)C6CC[C@@]5(C)[C@]4(C)C[C@H]2O)[C@@H]3C1 (some centres not stated),i
O=C(Cn1ccc2cc(S(=O)(=O)N3CCCC3)ccc21)NCCc1cccs1,i
CC(C)CCCC1CN(C(=O)CN2CCCC2=O)CCO1 (configuration not stated),i
O=S(=O)(NCCc1ccccc1)c1ccc2[nH]c3c(c2c1)CCCC3,i
CCNC(=O)[C@@H]1C[C@H](n2cc(CN(C)C(=O)NC3CCCCC3)nn2)CN1,i
C=CC(C)(O)CC/C=C(\C)C(=O)O[C@@H]1[C@@H](O)[C@H](OC(C)(C=C)CC/C=C(\C)C(=O)O[C@@H]2O[C@H](CO)[C@@H](O)[C@H](O)[C@H]2O)O[C@H](CO)[C@H]1OC(=O)/C(C)=C/CCC(C)(O)C=C (some centres not stated),i
O=C(CCc1nnc2n(Cc3ccccc3)c(=O)c3ccccc3n12)N1CCC(Cc2ccccc2)CC1,i
C=C1CCC2C(C)(C)C(O)CCC2(C)C1CCC(C)CCOC(C)=O (configuration not stated),i
